From PubChem
CtBP-E1A blk: blocks the CtBP interaction with E1A | activity change, % (no concentration beside the values) | hit rate 0.49% among 340,000 | AlphaScreen GST-E1A/His-CtBP binding, 1536-well; hits give low values; control for the full effect not named in the record; in the data active means activity change below about -65%; inconclusive means about -30% to -65%; inactive means above about -30%; note: % is set by controls: 0 for no effect and ±100 for the full control effect; compound concentration not given in the record
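Protein mix (5X: 125 nM each GST-E1A, His-CtBP) was incubated with pinned compound 2 h at 37 deg C in dark, in 50 mM Tris pH 8.0 buffer with 300 mM NaCl. Glutathione donor and nickel acceptor beads followed; AlphaScreen signal read after 1 h.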
TRPV1 PAM: enhances activation of the human vanilloid receptor TRPV1. Q8NER1. TRPV1-expressing cells, Fluo-8 calcium influx, capsaicin EC20 potentiation; host cell line not named in the record; control for the full effect not named in the record. potentiation, % at 8.33 µM. hit rate 0.02% among 320,000. AID 540277; active means potentiation above 80%; inconclusive means 30% to 80%; inactive means below 30%; note: 0% is about no effect
Target sequence (Q8NER1 whole entry, looked up): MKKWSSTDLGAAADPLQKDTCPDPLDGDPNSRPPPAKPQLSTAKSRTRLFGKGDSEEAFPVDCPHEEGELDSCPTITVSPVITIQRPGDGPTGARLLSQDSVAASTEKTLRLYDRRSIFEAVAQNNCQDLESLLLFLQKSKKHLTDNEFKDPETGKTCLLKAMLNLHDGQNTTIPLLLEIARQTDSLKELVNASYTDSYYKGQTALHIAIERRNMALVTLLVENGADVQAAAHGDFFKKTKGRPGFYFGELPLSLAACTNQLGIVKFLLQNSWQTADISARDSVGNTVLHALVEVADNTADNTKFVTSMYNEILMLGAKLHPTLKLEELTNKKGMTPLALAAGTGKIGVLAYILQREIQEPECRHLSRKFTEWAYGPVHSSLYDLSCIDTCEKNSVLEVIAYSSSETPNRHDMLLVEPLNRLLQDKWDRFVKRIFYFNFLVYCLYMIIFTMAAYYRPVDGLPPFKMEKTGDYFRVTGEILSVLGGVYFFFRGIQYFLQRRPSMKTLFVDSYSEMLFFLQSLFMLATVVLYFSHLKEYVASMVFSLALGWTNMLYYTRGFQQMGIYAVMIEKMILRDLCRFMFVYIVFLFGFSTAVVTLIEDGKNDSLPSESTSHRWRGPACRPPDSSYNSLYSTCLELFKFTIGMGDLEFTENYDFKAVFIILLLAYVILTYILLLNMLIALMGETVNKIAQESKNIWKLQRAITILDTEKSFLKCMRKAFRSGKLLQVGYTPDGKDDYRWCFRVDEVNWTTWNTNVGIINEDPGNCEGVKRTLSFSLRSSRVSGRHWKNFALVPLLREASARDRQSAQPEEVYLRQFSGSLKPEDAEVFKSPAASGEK
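TRPV1-expressing cells were cultured overnight at 35.5C and loaded with Fluo-8 calcium dye for 40 to 90 min at room temperature. After a 10 s baseline, compound was added and calcium influx was read kinetically for 3 min (ex 480/em 520 nm).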
TRPML1 ag: activates the human TRPML1 channel; Q9GZU1; TRPML1-expressing cells, Ca2+ dye fluorescence, FDSS; host cell line not named in the record; reference of the full effect not given here; activation, % (no concentration beside the values); hit rate 0.12% among 410,000; AID 624414; in the data active = activation above about 50%; inconclusive = about 30% to 50%; inactive = below about 30%; note: 0% is about no effect; the text of the record puts the active cut at 80%
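Agonist activity was taken from a 110 s kinetic Ca2+ dye read on the FDSS after pinning compounds onto TRPML1-DL cells. The cells were seeded at 1,500/well with Tet inducer, incubated about 16 h, then dye-loaded at room temperature.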
D2 potentiator: positive allosteric modulators of human D2 dopamine receptor; DiscoveRx D2 beta-arrestin cells, luminescence, 90 min; 100% = 57 uM dopamine signal; potentiation, % (test concentration not listed); AID 624464; P14416; hit rate 0.23% among 360,000; active = potentiation of 50% or more; inconclusive = 30% to 50%; inactive = 30% or less;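 note: compound concentration not given in the record; tested on top of an EC20 dose of dopamine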
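D2 cells co-treated with compound plus 50 nM dopamine (EC20) for 90 min at 37 deg C to detect potentiation. Beta-arrestin recruitment was read as enzyme-fragment luminescence after 1 h at ambient temperature. Full response was set by 57 uM dopamine.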
TRPML1 blocker: blocks the human TRPML1 channel; TRPML1-inducible cells, Ca2+ dye fluorescence, FDSS; hits give low values; inhibition of EC80 agonist-evoked calcium signal; activity change, negative = inhibition, % (test concentration not listed); hit rate 0.02% among 390,000; AID 624415; in the data active means activity change below about -50%; inconclusive means about -30% to -50%; inactive means above about -30%;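 note: stimulus is agonist 54-4 at its EC80 concentration; % is set by controls: 0 for no effect and ±100 for the full control effect; compound concentration not given in the record; the text of the record puts the active cut at -80%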
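Tet-induced TRPML1-DL cells loaded with Ca8 no-wash calcium dye were read kinetically on FDSS. Compound addition was followed by EC80 agonist 54-4 (4 uM final); inhibition was read over 110 s.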
Six1-Eya2 inh: inhibitors of human Six1/Eya2 interaction | Q15475+O00167 | AlphaScreen GST-Six1/His-Eya2 binding, biochemical; hits give low values; control for the full effect not named in the record | activity change, % (no concentration beside the values) | hit rate 0.56% among 360,000 | AID 651725; in the data active = activity change below about -65%; inconclusive = about -30% to -65%; inactive = above about -30%; note: % is set by controls: 0 for no effect and ±100 for the full control effect; compound concentration not given in the record
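Six1/Eya2 binding was read as AlphaScreen signal after compounds were pinned into GST-Six1 plus His-tagged Eya2 (5X stock 250/500 nM) in pH 8.0 Tris/NaCl/TCEP buffer, beads added, then incubated 1 h, 37 C, dark.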
Active calls of the source: *; ? = inconclusive; / = no result given; & = joins results of further samples.

SMILES | CtBP-E1A blk | TRPV1 PAM | TRPML1 ag | D2 potentiator | TRPML1 blocker | Six1-Eya2 inh
Cc1ccccc1-c1nc(CN2CCC(C(=O)NCCN3CCOCC3)CC2)c(C)o1 | -1 | 22 | -0.2 | -16 | -3 | -1
COc1ccc2c(c1)c1ncn(Cc3ccco3)c(=O)c1n2C | -29 | -4 | 0.8 | -3 | 9 | ?
Cc1cccc(CCNS(=O)(=O)c2ccc3c(c2)NC(=O)CS3)c1 | / | 13 | 0.5 | 1 | -8 | 0
O=C(N1CCCCC1)C1(S(=O)(=O)c2ccccc2)CC=CC1 | 4 | ? | -0.6 | -4 | 0 | 0
Cc1cc(OC(=O)C2CC2)c([N+](=O)[O-])c(=O)[nH]1 | 7 | 14 | -0.6 | 3 | 1 | 1
O=C(c1ccc(=O)oc1)N1CCCc2ccccc21 | -3 | 6 | -0.2 | 6 | -4 | ?
CC(=O)O[C@H]1C2OC(=O)C(C)=C2[C@@H]2OC(=O)[C@]3(CCC4OC41C)OC23 (some centres not stated) | 0 | 22 | -0.6 | -34 | -12 | 0
CCN(CC)C(=O)c1ccc(S(=O)(=O)c2ccccc2)cc1 | 1 | -4 | -1.1 | -27 | 2 | 27
O=C1CCCc2ccccc2N1 | / | -7 | -0.5 | 1 | 34 | 7
O=C(NNC(=O)C12CC3CC(CC(C3)C1)C2)c1csc(N2CCOCC2)n1 | 2 | -8 | 0.1 | 23 | -5 | 2
CSc1nc2ncc(C(=O)O)c(N)n2n1 | 4 | -5 | -0.2 | 0 | 9 | -2
Cc1ccnc(NCc2cc(Cl)ccc2O)c1 | 0 | / | -0.8 | -9 | -1 | -6
COc1ccc(Cc2nnc(NC(=O)C3CC(=O)N(CCc4ccc(F)cc4)C3)s2)cc1OC (configuration not stated) | 7 | 21 | 1.0 | -8 | 7 | 4
CCCCNS(=O)(=O)c1ccc2nc(-c3cccnc3)cc(C(=O)NC(C)CC)c2c1 (configuration not stated) | 4 | 2 | -0.5 | -3 | 10 | 0
O=C(Nc1ccccc1O)c1cc2cc(Br)ccc2oc1=O | / | 26 | -0.3 | -9 | -7 | 0
O=C(NCc1cccs1)c1cc2c(s1)CS(=O)(=O)C2 | 0 | -12 | -0.3 | 10 | -9 | -3
O=S(=O)(c1ccccc1)c1nc(Nc2ccccc2N2CCOCC2)sc1Cl | -6 | 1 | 0.9 | 7 | 7 | -8
COc1ccc(NC(=S)N(CCN(C)C)C(C)c2ccco2)cc1 (configuration not stated) | -4 | 7 | 1.6 | -7 | 4 | 1
CCN(CC)S(=O)(=O)c1cccc(C(=O)NN2Cc3ccccc3C2=N)c1 | / | -9 | 0.2 | -10 | 11 | 4
CCCc1nnc(NC(=O)CSc2ncn[nH]2)s1 | 7 | 15 | -1.5 | -7 | 3 | 12
C=CCC(C(=O)Oc1c(C(C)(C)C)cc(C)cc1C(C)(C)C)c1ccccc1 (configuration not stated) | 1 | -12 | -0.4 | -2 | -6 | -1
CS(=O)(=O)N(CC(=O)N1CCN(c2ccccc2F)CC1)c1cc(C(F)(F)F)ccc1Cl | -6 | -4 | 1.1 | -12 | 22 | -1
Cc1nc(C(F)(F)F)ccc1C(=O)Nc1ccc2ccccc2n1 | 0 | -2 | 0.1 | -6 | 6 | -6
CC(C)OC(=O)C1C(=O)CC(C)(O)C(C(=O)OC(C)C)C1c1ccc([N+](=O)[O-])cc1 (configuration not stated) | 5 | -5 | 0.1 | -8 | -2 | 12
CCOc1cc(NC(=O)c2cccs2)c(OCC)cc1NC(=O)CCC(=O)NCc1ccccn1 | 3 | 13 | 1.1 | -3 | 1 | 8

(cont.)
SMILES | CtBP-E1A blk | TRPV1 PAM | TRPML1 ag | D2 potentiator | TRPML1 blocker | Six1-Eya2 inh
COc1ccccc1OCc1cc(C(=O)N2CCCC(OCc3cccnc3)C2)no1 (configuration not stated) | 4 | -8 | -0.5 | -12 | -5 | 2
O=C(COC(=O)c1cnc(Cl)c(Cl)c1)NC1CC1 | -3 | / | -0.4 | 21 | -10 | -1
S=C(Nc1ccc(Nc2ccccc2)cc1)NN1CCOCC1 | -1 | 9 | -0.5 | 3 | -20 | 5
COc1ccc(-c2ccc(C#N)c(OC)n2)cc1 | 10 | 13 | 0.6 | -5 | 5 | 9
Cc1nc2nc(C)c(CCC(=O)O)c(C)n2n1 | 5 | ? | 0.5 | 1 | 19 | 2
CCn1c(SCc2nc(-c3cccs3)no2)nnc1-c1c[nH]c2ccccc12 | -10 | 12 | 1.7 | 12 | 1 | -8
O=C(N/C=C/c1ccccc1)Nc1ccc(Cl)cc1 | 3 | -38 | -0.5 | -28 | 0 | 4
O=C(/C=C1\SC(=O)NC1=O)Nc1ccc(F)cc1 | -2 | -3 | 0.1 | -3 | 22 | -1
COc1ccc(CCN2CC(C(=O)NCc3ccon3)CCC2=O)cc1 (configuration not stated) | -6 | / | -0.5 | -6 | 5 | -3
CCCS(=O)(=O)c1nc(S(=O)(=O)c2ccc(C)cc2)c(N2CCCCC2)s1 | 2 | / | -0.9 | -24 | 0 | 3
COc1ccc(/C=N/Nc2ncnc3sc4c(c23)CCCC4)cc1OC | -16 | -9 | -0.4 | -9 | 4 | ?
O=C(/C=C/c1cn(-c2ccccc2)nc1-c1ccc2c(c1)OCCO2)NCCCN1CCOCC1 | -13 | -22 | 0.5 | -9 | 14 | -9
C[C@H]1CN([C@@H](C)CO)C(=O)c2cccc(NC(=O)Nc3ccc(C(F)(F)F)cc3)c2O[C@H]1CN(C)C | -25 | / | -0.1 | -8 | -11 | 10
Cc1cc(C)n2nc(C(=O)Oc3ccc4c(c3)OCO4)nc2n1 | -3 | -14 | -0.8 | -13 | 8 | 2
Cc1nnc(SCC(=O)c2ccc(Cl)cc2)n(N)c1=O | 2 | 2 | -0.1 | -2 | 32 | 12
COC(=O)c1ccccc1NC(=O)C1(S(=O)(=O)c2ccc(Cl)cc2)CC1 | 0 | 16 | 4.1 | -5 | 59 | 0
C=CCc1ccc(OCc2ccc(C(=O)OC)o2)c(OC)c1 | 25 | -3 | -0.5 | -8 | -12 | 12
S=C(Nc1ccc(Br)cc1)N1CCN(c2ccccn2)CC1 | -3 | 11 | 0.1 | -3 | -10 | -6
COCCNc1nnc(Cc2ccccc2)c(=O)[nH]1 | -3 | 0 | 0.1 | 1 | 26 | 7
CCOC(=O)[C@]12CCC=C1N(Cc1ccc(Cl)cc1Cl)C(=O)[C@H](CC(=O)N1CCCCC1)C2 | -6 | / | -0.5 | / | / | -8
COc1ccc(/C=N/NC(=O)c2nnn(-c3nonc3N)c2-c2cccs2)c(OC)c1 | 2 | 2 | 0.1 | -5 | 29 | -2
COC(=O)[C@@H]1CCCN1Cc1c(C(=O)N2CCOCC2)nc2c(C)cccn12 | -1 | 10 | -0.2 | -3 | 9 | 1
Cc1ccc2c(C)c(C(=O)N(Cc3ccc(F)cc3)C3CCS(=O)(=O)C3)oc2c1 (configuration not stated) | -9 | 9 | 1.8 | -10 | 61 | -1
Cc1ccccc1S(=O)(=O)Cc1ccc(C(=O)N2CCN(c3ccc(F)cc3)CC2)o1 | -1 | 20 | 1.4 | -15 | -5 | -3
COc1cc(/C=C2\SC(=N)N(c3ccc4c(c3)OCO4)C2=O)cc(OC)c1O | / | 6 | 3.9 | -9 | 16 | -17

(more compounds)
SMILES | CtBP-E1A blk | TRPV1 PAM | TRPML1 ag | D2 potentiator | TRPML1 blocker | Six1-Eya2 inh
N#Cc1cc2c(nc1SC1CC(=O)N(c3ccccc3)C1=O)CCC2 (configuration not stated) | 5 | 12 | -0.7 | -5 | 11 | -2
Cc1ccc(CCNC(=O)C2CC(=O)N(C3CCCCC3)C2)cc1 (configuration not stated) | / | 8 | 0.3 | -7 | -8 | 5
O=C(NCCC(=O)N1CCN(S(=O)(=O)c2ccc(Cl)cc2)CC1)Nc1ccccc1 | 2 | 8 | -0.8 | -13 | -1 | 2
Nc1ccc(S(=O)(=O)O)cn1 | 2&3&-8 | -9&-9 | -0.3&1.9&0.6 | 2&-2&0 | 19&20&-12 | 3&2&-2
CCOC(=O)c1ccc(NC(=S)NC(=O)c2cncc(Br)c2)cc1 | 5 | 13 | -0.5 | 1 | -6 | 9
CC1CC(C)CN(C(=O)COC(=O)c2nccnc2N)C1 (configuration not stated) | 1 | 24 | 3.2 | 1 | -13 | 2
CCn1cc(C(=O)OCC(=O)Nc2c(C)n(C)n(-c3ccccc3)c2=O)c(=O)c2ccc(C)nc21 | 32 | 11 | 0.0 | -23 | -11 | 15
O=C(NCCCn1ccnc1)c1cc(C(=O)C2CCCCC2)c[nH]1 | -7 | 0 | 1.3 | 0 | -12 | 3
CC(C)(C)NC(=O)CSc1nc2cccnc2n1C1CCCCC1 | / | -27 | 2.0 | -13 | 26 | 5
COc1ccc(OCCn2c(C)c(/C=N/n3cnnc3)c3ccccc32)cc1 | -4 | -12 | 1.0 | -8 | 15 | 3
O=S(=O)(Nc1cccc2c1ccc1cccn12)c1cccs1 | 0 | 2 | 1.0 | -13 | -9 | -8
O=C(CCS(=O)(=O)c1ccc(Br)cc1)Nc1ccc2c(c1)OCO2 | -9 | 4 | 0.2 | -1 | 21 | -16
S=C(NCCc1ccccc1)N1CCN(C2CCCCC2)CC1 | 2 | -2 | 1.2 | -7 | 0 | -13
COc1ccc(CCN=C(N)Nc2nc(C)cc(C)n2)cc1 | -8 | 12 | 0.6 | -4 | 2 | -14
CC(c1nnc(SCC(=O)Nc2sccc2C#N)n1-c1ccc(Cl)cc1)N(C)C (configuration not stated) | -1 | -5 | 0.6 | -4 | -8 | -2
COc1ccc(C(=S)N2CCN(c3ccccc3Cl)CC2)cc1OC | / | -7 | 1.3 | -4 | 5 | -23
NS(=O)(=O)c1ccc(CCNC(=O)CSc2ccsc2[N+](=O)[O-])cc1 | / | -8 | 0.8 | -16 | 28 | -5
O=c1cc(-c2ccccc2Cl)oc2cccc(O)c12 | / | 0 | -0.4 | -12 | 46 | -1
Cc1sc2ncnc(N3CCN(c4ncccn4)CC3)c2c1C | -13 | -22 | -0.1 | -19 | -16 | -14
O=C(Nc1ccc2snnc2c1)Nc1cccc2ccccc12 | -4 | -11 | -1.6 | 7 | -12 | -11
CN(CC(=O)Nc1cccc(F)c1)C(=O)c1cccc(S(=O)(=O)N2CC3(C)CC2CC(C)(C)C3)c1 (configuration not stated) | 11 | -8 | -0.3 | 13 | 4 | -3
COCc1cc(C)nc(Oc2ccccc2)c1C#N | 9 | 29 | 0.0 | -4 | -5 | -18

Grouped by structure: the compounds so far with a tert-butyl group
SMILES | CtBP-E1A blk | TRPV1 PAM | TRPML1 ag | D2 potentiator | TRPML1 blocker | Six1-Eya2 inh
C=CCC(C(=O)Oc1c(C(C)(C)C)cc(C)cc1C(C)(C)C)c1ccccc1 (configuration not stated) | 1 | -12 | -0.4 | -2 | -6 | -1
CC(C)(C)NC(=O)CSc1nc2cccnc2n1C1CCCCC1 | / | -27 | 2.0 | -13 | 26 | 5

Arranged by the number under D2 potentiator (lowest first): some entries from above
SMILES	CtBP-E1A blk	D2 potentiator	TRPML1 blocker	Six1-Eya2 inh
CCn1cc(C(=O)OCC(=O)Nc2c(C)n(C)n(-c3ccccc3)c2=O)c(=O)c2ccc(C)nc21	32	-23	-11	15
Cc1sc2ncnc(N3CCN(c4ncccn4)CC3)c2c1C	-13	-19	-16	-14
CN(CC(=O)Nc1cccc(F)c1)C(=O)c1cccc(S(=O)(=O)N2CC3(C)CC2CC(C)(C)C3)c1 (configuration not stated)	11	13	4	-3
